# Env fusion inh: inhibitors of HIV Env-mediated cell fusion. HeLa-JRFL Env/CEM21 cell fusion, luciferase. inhibition, % at 12.3 µM. 360,000 tested, 1.1% active. AID 651610;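 active = mean replicate inhibition score of at least 50 and every replicate individually at or above 50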;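 also: 0% = plate neutral controls and 100% = maraviroc near 300 nM; one replicate is shown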
# MT1-MMP act inh: MT1-MMP (human) activation inhibition; GFP/RFP ratio change, % at 20 µM; AID 651647; HT1080 RFP-PRO-GFP cells, GFP/RFP ratio fluorescence, overnight; percent of plate control window, DMSO zero; 360,000 tested, 0.061% active;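 active = GFP/RFP ratio change of at least 30% with cell ATP level not reduced by more than half and red fluorescence within 50% of control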; also: strong numbers were not always called active
#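 Test system: HT1080 cells expressing an RFP-PRO-GFP fluorescent reporter construct / Compound dosing: single-point 20 µM compound, 1% DMSO / Schedule: cells overnight before dosing, compound overnight, 37 °C, 5% CO2 / Evaluation: GFP/RFP fluorescence ratio / Control set: DMSO and RFP-L50D-GFP cell wells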
# PABP polyA inh: blocks human PABP binding to poly(A) RNA; inhibition, % at 35 µM; P11940; 290,000 tested, 1% active; fluorescence polarization; AID 2014;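 active = 50% or more with normal probe brightness, or confirmed in later tests; about a fifth of its hits are not listed in these tables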;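 also: calls also rest on retests at 20 µM and on dose response follow-up; controls were probe without protein and protein plus probe with vehicle; some compounds called inactive have numbers as strong as hits; many hits fall short of the cut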
# Target sequence (P11940 whole entry, looked up): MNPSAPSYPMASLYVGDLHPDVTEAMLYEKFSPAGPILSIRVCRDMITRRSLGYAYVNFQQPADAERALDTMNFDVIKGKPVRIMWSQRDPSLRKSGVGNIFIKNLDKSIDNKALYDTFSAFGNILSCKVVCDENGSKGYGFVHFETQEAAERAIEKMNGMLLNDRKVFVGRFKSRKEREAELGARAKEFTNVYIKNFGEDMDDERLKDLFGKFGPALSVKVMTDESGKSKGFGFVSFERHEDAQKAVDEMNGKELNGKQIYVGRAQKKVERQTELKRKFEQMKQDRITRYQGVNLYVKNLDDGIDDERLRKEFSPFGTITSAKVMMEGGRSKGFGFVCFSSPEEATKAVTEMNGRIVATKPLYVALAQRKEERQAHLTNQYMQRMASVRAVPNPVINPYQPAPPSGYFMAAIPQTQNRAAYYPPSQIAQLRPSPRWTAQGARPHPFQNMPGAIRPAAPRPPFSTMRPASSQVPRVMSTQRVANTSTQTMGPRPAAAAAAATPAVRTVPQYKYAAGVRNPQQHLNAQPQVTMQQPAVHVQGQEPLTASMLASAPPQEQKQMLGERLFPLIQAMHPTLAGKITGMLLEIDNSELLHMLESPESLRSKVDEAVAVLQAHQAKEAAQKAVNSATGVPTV
# CSC inhib: cancer stem cell inhibition; cancer stem cell-like cells viability, luminescence; inhibition, % at 7.5 µM; 300,000 tested, 1.1% active;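 active = mean at 75% or more and at least half the replicates too; tested in HMLE shEcad cells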;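 also: 0% = median of negative and 100% = median of positive control wells; the first replicate is given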
# eIF4H inh: inhibitors of RNA binding by human eIF4H; Q15056; eIF4H fluorescence polarization binding assay; inhibition, % at 35 µM; 290,000 tested, 0.94% active; AID 2012;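 active = 50% or more with normal probe brightness, or confirmed in later tests; about a fifth of its hits are not listed in these tables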;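 also: calls also rest on retests at 20 µM and on dose response follow-up; 0% = protein and probe with vehicle and 100% = probe without protein; strong numbers were not always called active; many hits fall short of the cut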
# Rce1 inh: inhibitors of yeast Ras-converting enzyme; yeast membranes, quenched prenylated peptide cleavage fluorescence; calls only; 290,000 tested, 0.27% active; AID 2563;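 active = fall in fluorescence gain of 50% or more versus controls, with final raw signal at or below 3038400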;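 also: plate controls were neutral control wells for no effect and wells lacking membranes for full effect; tested at 10 µM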
# UUG fidelity: alters start codon recognition fidelity in yeast; S. cerevisiae UUG-firefly luciferase reporter, luminescence/redox ratio; activity score, % at 18.7 µM; AID 602363; 350,000 tested, 0.13% active;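 active = replicate mean at a twofold rise or more, about +100% in these data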;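 also: firefly luciferase made from a UUG start codon reports start codon fidelity; reporter light over untreated wells divided by growth signal over untreated wells; some hits fall short of that in this replicate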
# MT1-MMP act inh RFP: further read-out of MT1-MMP act inh, marked with its call; RFP signal change, %; measured here: RFP expression control read;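 0 = vehicle wells; hits needed this value within 50% of zero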
# * hit, by the source's call; i = inactive; · = not tested or not shown. Some of the compounds tested; rates above refer to the full screens.
# Sample of the layout:
SMILES,Env fusion inh,MT1-MMP act inh,MT1-MMP act inh RFP,PABP polyA inh,CSC inhib,eIF4H inh,Rce1 inh,UUG fidelity
COC(=O)c1ccc(NC(=O)CSc2nc3cccnc3n2C)cc1,19,3,-12,13,-13,5,i,-19
CCc1ccc(NC(=S)Nc2cccc3cnccc23)cc1,-3,-2,2,28,-15,13,i,-27
Cc1ccc(SCC(=O)OCC(=O)N(CCC#N)c2ccccc2)cc1C,5,-1,2,·,-8,·,i,-3
O=C(Nc1ccccc1)N1CCn2c1nc1ccccc12,·,6,7,4,11,1,i,-5
COc1ccccc1OCCCOc1ccc(/C=C2\SC(=O)NC2=O)cc1OC,-26,1,-12,8,19,-1,i,-6
COc1ccc(C(=O)CSc2nnc(NC(=O)C3CC(=O)N(c4ccccc4)C3)s2)cc1 (centres undefined),-13,8,5,-19,6,-5,i,-10
COc1cc2c(cc1OC)C(C)N(C(=S)Nc1ccccc1)CC2 (centres undefined),-10,6,-1,3,-8,-3,i,·
Cc1cc(-c2ccc(S(=O)(=O)N3CCCCC3)s2)on1,5,2,5,6,-18,-6,i,-6
COc1ccc(NC(=O)C2CCCN2S(=O)(=O)c2ccc3c(c2)CCC(=O)N3)c(OC)c1 (centres undefined),15,0,-1,8,0,-3,·,-6
CC(=O)Nc1cccc(NC(=O)C2CCCN2C(=O)Nc2cccc(C)c2)c1 (centres undefined),-17,-1,0,3,-8,-5,i,-4
C#CCOCCOCCOCCNc1nc(N2CCN(C(=O)CCCCCCCCCCNC(=O)Cn3cc(CCCCCN)nn3)CC2)nc(N2CCN(C(=O)CCCCCCCCCCNC(=O)[C@@H]([C@H](C)O)n3cc(C)nn3)CC2)n1,·,7,-8,·,10,·,·,-2
Cc1cccc(-c2nc(NCCCN(C)C)c3ccccc3n2)c1,-5,-1,3,42,-2,47,i,3

# The listing, from the first entry:
SMILES,Env fusion inh,MT1-MMP act inh,MT1-MMP act inh RFP,PABP polyA inh,CSC inhib,eIF4H inh,Rce1 inh,UUG fidelity
COC(=O)c1ccc(NC(=O)CSc2nc3cccnc3n2C)cc1,19,3,-12,13,-13,5,i,-19
CCc1ccc(NC(=S)Nc2cccc3cnccc23)cc1,-3,-2,2,28,-15,13,i,-27
Cc1ccc(SCC(=O)OCC(=O)N(CCC#N)c2ccccc2)cc1C,5,-1,2,·,-8,·,i,-3
O=C(Nc1ccccc1)N1CCn2c1nc1ccccc12,·,6,7,4,11,1,i,-5
COc1ccccc1OCCCOc1ccc(/C=C2\SC(=O)NC2=O)cc1OC,-26,1,-12,8,19,-1,i,-6
COc1ccc(C(=O)CSc2nnc(NC(=O)C3CC(=O)N(c4ccccc4)C3)s2)cc1 (centres undefined),-13,8,5,-19,6,-5,i,-10
COc1cc2c(cc1OC)C(C)N(C(=S)Nc1ccccc1)CC2 (centres undefined),-10,6,-1,3,-8,-3,i,·
Cc1cc(-c2ccc(S(=O)(=O)N3CCCCC3)s2)on1,5,2,5,6,-18,-6,i,-6
COc1ccc(NC(=O)C2CCCN2S(=O)(=O)c2ccc3c(c2)CCC(=O)N3)c(OC)c1 (centres undefined),15,0,-1,8,0,-3,·,-6
CC(=O)Nc1cccc(NC(=O)C2CCCN2C(=O)Nc2cccc(C)c2)c1 (centres undefined),-17,-1,0,3,-8,-5,i,-4
C#CCOCCOCCOCCNc1nc(N2CCN(C(=O)CCCCCCCCCCNC(=O)Cn3cc(CCCCCN)nn3)CC2)nc(N2CCN(C(=O)CCCCCCCCCCNC(=O)[C@@H]([C@H](C)O)n3cc(C)nn3)CC2)n1,·,7,-8,·,10,·,·,-2
Cc1cccc(-c2nc(NCCCN(C)C)c3ccccc3n2)c1,-5,-1,3,42,-2,47,i,3
O=C(COc1ccc2ccc(=O)oc2c1)N1CCN(c2ccc(F)cc2)CC1,8,2,-2,·,-14,·,i,18
O=C(NCCC1=CCCCC1)c1cccc2c1C(=O)N(C1CCCCC1)C2,28,-8,-11,-10,14,-11,i,·
O=C(/C=C/c1ccc(Cl)c([N+](=O)[O-])c1)Nc1ccc(N2CCCC2)cc1,-11,4,5,0,1,21,i,·
CC(=O)Nc1cc2c3c(c1)CCC(=O)N3CCC2,5,-1,3,1,-7,-11,i,·
Cc1cc(C)nc(NC(=O)c2csnn2)c1,-7,1,4,-10,-4,-6,·,·
c1cncc(Nc2nc(-c3cccs3)cs2)c1,·,2,-8,5,21,-4,i,8
Cc1cc(C)cc(C(=O)NC(CC(N)=O)c2ccc(N3CCN(c4ccccn4)CC3)c([N+](=O)[O-])c2)c1 (centres undefined),-14,1,4,-6,1,2,i,-16
N/C(=N\OC(=O)c1ccc(F)cc1)c1ccc(Br)cc1,-26,5,5,-8,-2,1,i,2
CC(=O)Nc1cc(-c2cccnc2)cn2c(-c3ccc(F)cc3)cnc12,11,-3,-4,·,·,·,·,-18
O=C(O)/C=C/c1coc2ccc(F)cc2c1=O,·,-2,3,-6,-9,3,i,-9
COc1cc(/C=N/NC(=S)NCCc2ccccc2)cc(OC)c1OC,5,-8,-10,16,5,-6,i,-20
C/C=C(\C)C(=O)Nc1cccc(C2=NOC3(C2)C[C@@H](C(N)=O)N(C(=O)c2cc([N+](=O)[O-])cc([N+](=O)[O-])c2C)C3)c1 (some centres undefined),-3,3,4,0,-4,-3,i,3
CCCn1c(SCC(=O)NCc2ccccc2Cl)n[nH]c1=O,-13,2,6,24,-13,0,i,·
CCC1CCCCN1C(=O)Cn1c(=O)n(CCCC(=O)NCc2ccco2)c(=O)c2sccc21 (centres undefined),-14,-2,1,2,-2,0,i,-3
O=c1oc2ccccc2cc1N1CCOCC1,1,1,4,13,17,-10,i,·
CCC(C(=O)NCc1ccc(F)cc1)N(Cc1cccs1)C(=O)c1snc(C(N)=O)c1N (centres undefined),6,-1,-3,4,·,4,i,-11
Cc1cc(C(=O)N2CCCC2(C)C(=O)NCC(C)C)nn1C(C)(C)C (centres undefined),-10,1,5,·,·,·,·,-6
C[C@H](O)[C@@H]1C(=O)N2CCc3ccc(N4CCN(C)CC4)cc3[C@@H]2C[C@@H]1N(C)C(=O)c1ccc(C#N)cc1,-43,1,4,·,·,·,·,-5
O=C(CCOc1ccccc1)N1CCN(c2ccc(O)cc2)CC1,38,-8,-18,-5,82*,-8,i,-5
Cc1ccc(N=CC2=C(O)CC(c3ccccc3Cl)CC2=O)cc1 (centres undefined),5,3,3,6,3,-10,i,-59
CC(=O)Oc1ccc(/C=N/NC(=O)C2CCCN2S(=O)(=O)c2ccc(Cl)cc2)cc1 (centres undefined),·,-1,-1,48,-6,1,i,-5
Cc1nc([N+](=O)[O-])c(N2CCN(Cc3ccccc3)CC2)n1Cc1ccccc1,·,-3,-3,1,3,-9,i,-3
C=CCNC(=S)NNC(=O)c1cccn(Cc2ccc(Cl)cc2Cl)c1=O,29,-3,-4,-2,-15,4,i,-20
COc1ccc(CCNC(=O)COC(=O)c2cnc(C)cn2)cc1OC,-9,5,7,-5,-5,-2,i,-3
Cc1cccc(NC(=O)Cn2c(O)c(N=NC(=O)c3ccccc3O)c3ccccc32)c1,-5,27,-7,8,7,26,i,0
COc1ccc(C(=O)N2CCN(c3ccccn3)CC2)cc1,13,-1,-4,-14,-3,-6,i,-5
Cc1ccc(S(=O)(=O)NCC(=O)OCC(=O)N2CC(=O)Nc3ccccc32)cc1,-7,0,5,·,-18,·,·,-16
COc1cc(OC)nc(NC(=O)CSc2nnc(-c3ccccc3)n2C2CCCCC2)n1,·,-2,1,·,-3,·,i,-12
CCCCc1c(O)nc(SCC(=O)Nc2ccc3c(c2)CCC3)[nH]c1=O,·,-4,-3,-2,3,-7,i,-10
COc1ccc(OC)c(S(=O)(=O)N(C(C)=O)c2ccc3oc(=O)sc3c2)c1,-7,1,4,-4,-12,-11,i,·
Cc1cccc2c(=O)n(C(=O)c3ccccc3)c(N)nc12,-19,-3,-3,·,·,·,·,0
COc1ccc(SC[C@H](Cc2ccccc2)N2CC[C@@H](O)CCC2=O)cc1,-20,-4,2,·,0,·,·,-1
Cc1nc(SCC(=O)N2CCN(c3ccccn3)CC2)c(C#N)c(C)c1C,-9,-2,0,·,-5,·,·,-8
CCN(CC(=O)N1CCC(C(N)=O)CC1)S(=O)(=O)c1ccc(Cl)cc1,-4,-2,1,1,-4,-8,i,-13
COc1cccc(C(O)c2ncc(-c3cccc(F)c3)[nH]2)c1 (centres undefined),-29,7,-5,·,·,·,·,-10
Cc1cc(C(=O)NCCN2CCN(c3cccc(Cl)c3)CC2)n(-c2ccccc2)n1,-5,1,-14,14,58,9,·,-5
COc1cc2c(cc1OC)-c1cc(Nc3ccccc3Br)nc(=O)n1CC2,-5,-2,-2,36,2,9,i,-11
S=c1[nH]nc(-c2ccco2)n1-c1ccc(Cl)cc1,-2,0,2,4,-4,4,i,·
COc1ccc(-c2nnc(SCc3cc(C)ccc3C)n2N)cc1,-29,6,-2,-4,11,-7,i,-14
C=C1[C@H](C)CN(S(=O)(=O)C(C)(C)C)[C@H]1CCO,-64,2,5,·,·,·,·,-15
Cc1cccnc1C(NC(=O)C1CCN(CCOc2ccc(Cl)cc2Cl)CC1)c1ccc(Cl)cc1 (centres undefined),22,-10,-10,·,·,·,·,16
CC(=O)NC(=O)NC1OC(=O)C(Cl)=C1Cl (centres undefined),-8,15,3,-3,8,-2,i,-21
CCc1ccc(C(=O)NNc2ccccc2F)cc1,-30,-2,-1,-6,37,-6,i,-3
COC(=O)c1cc(C(=O)OC)cc(N2C(=O)CC(NNC(=O)c3ccc(C)cc3)C2=O)c1 (centres undefined),-4,3,8,2,-15,7,i,·
Cc1[nH]c2c(C)cccc2c1CCNC(=O)c1ccc2c(c1[N+](=O)[O-])C(=O)c1ccccc1C2=O,·,38,54,14,50,9,i,-10
CNC(=S)N(Cc1ccc(OC)cc1)C1CC(=O)N(c2ccc(OC)cc2)C1=O (centres undefined),·,-1,-3,2,3,-3,i,-11
Cc1ccc(C(C)NC(=S)NC2CCCCC2)cc1C (centres undefined),17,-3,-3,4,-18,-2,i,-32
COCCCn1c(C(=O)NCCC2=CCCCC2)cc2c(=O)n3cccc(C)c3nc21,1,8,1,-2,0,-5,i,-2
# Remaining list, next part.
SMILES,Env fusion inh,MT1-MMP act inh,MT1-MMP act inh RFP,PABP polyA inh,CSC inhib,eIF4H inh,Rce1 inh,UUG fidelity
COC(=O)c1ccc(N2C(=O)C3C4C=CC(CC4)C3C2=O)cc1 (centres undefined),14,0,-4,11,6,-9,i,1
COc1ccccc1N1CCN(C(=O)c2cccc(N3C(=O)NC4CC3(C)Oc3c(OC)cccc34)c2)CC1 (centres undefined),-2,1,-1,9,-15,-7,i,8
CCCSC1=C(C#N)C(c2cccs2)C(C(=O)Nc2ccccc2)=C(C)N1 (centres undefined),·,-11,-22,-7,19,2,i,25
O=C(CCN1CCN(C(c2ccccc2)c2ccccc2)CC1)N/N=C/c1ccc(O)cc1,-39,2,-2,26,·,-13,i,·
O=S(=O)(Nc1ccccc1N1CCOCC1)c1ccccc1C(F)(F)F,·,7,-4,·,-3,·,·,-5
Nc1ccc(Oc2ccc3c(c2)OCO3)cc1,-1,2,1,1,11,-8,i,·
Cc1ccccc1NC(=O)CN1CCC(n2nnc3ccccc32)CC1,13,-3,-1,-9,0,0,·,·

# Retrieved one by one from the entries so far, 2 records:
SMILES,Env fusion inh,MT1-MMP act inh,MT1-MMP act inh RFP,PABP polyA inh,CSC inhib,eIF4H inh,Rce1 inh,UUG fidelity
Cc1ccccc1NC(=O)CN1CCC(n2nnc3ccccc32)CC1,13,-3,-1,-9,0,0,·,·
O=C(CCN1CCN(C(c2ccccc2)c2ccccc2)CC1)N/N=C/c1ccc(O)cc1,-39,2,-2,26,·,-13,i,·
